Screening results as filed in PubChem BioAssay.
Bfl-1 A1 inh: caspase 3/7 activation in MEF A1-2A-BIM cells, primary screen, A1 inhibitor project, cell-based, luminescence, HTS; Caspase-Glo 3/7 luminescence, 3 h; percent of clofoctol response, vehicle zero; caspase activation, % (no concentration beside the values); 330,000 tested, 0.066% active; AID 2462, 2010;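 active = over half of replicate activation scores above 10%, or exactly half above 10 with the replicate mean above 10; inconclusive = replicate mean below 10 yet half the replicates above 10; inactive = over half of replicates below 10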;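 also: wells of about 30 µL received 50 nL stock; many hits fall short of the cut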
UCH37 inh: inhibitors of human UCH37 deubiquitinase, primary screen, biochemical, Ub-AMC cleavage, fluorescence; Ubiquitin carboxyl-terminal hydrolase isozyme L5 (Homo sapiens), Q9Y5K5; purified proteasome/UCH37; inhibition, % (test concentration not listed); 330,000 tested, 0.33% active;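 active = mean of two replicates above 20%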;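 also: 0% = compound-free wells with enzyme and 100% = wells lacking proteasome; stock transfer was 100 nL into about 20 µL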
Target sequence (Q9Y5K5 whole entry, looked up): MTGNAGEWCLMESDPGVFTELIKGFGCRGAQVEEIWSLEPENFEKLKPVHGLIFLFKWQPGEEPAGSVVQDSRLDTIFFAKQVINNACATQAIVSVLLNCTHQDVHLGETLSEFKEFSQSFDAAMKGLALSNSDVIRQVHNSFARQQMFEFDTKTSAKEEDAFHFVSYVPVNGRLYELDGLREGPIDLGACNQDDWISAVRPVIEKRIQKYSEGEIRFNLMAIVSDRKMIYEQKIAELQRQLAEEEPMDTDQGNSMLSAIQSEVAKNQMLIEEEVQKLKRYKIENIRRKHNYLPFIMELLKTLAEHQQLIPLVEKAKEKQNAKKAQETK
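Material: Human UCH37 enzyme supplied as purified proteasome complex | Schedule: 30 min preincubation with enzyme, 25 min cleavage at room temperature | Detection: AMC fluorescence 355/460 nm | Measure: % inhibition of Ub-AMC cleavage fluorescence | Controls: Wells without proteasome as full block, compound-free enzyme plus substrate as uninhibited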
Beta apoptosis: inhibitors of cytokine-induced beta cell apoptosis, primary screen, luminescence; INS-1E cytokine-induced death, ATP luminescence, 48 h; percent of positive-control rescue, neutral wells zero; protection from apoptosis, % (concentration not given with the values); 300,000 tested, 0.8% active; AID 435005, 2010;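 active = all replicates at 75% or more, or half of them and the mean; inconclusive = half reach 75% but not the mean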;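 also: 0% = cytokine-treated negative control wells and 100% = positive control rescue; higher means more ATP so stronger rescue from cytokine killing; wells of about 40 µL received 100 nL stock; the first replicate is given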
RanGTP-Imp inh: inhibitors of RanGTP-importin-beta interaction, primary screen, biochemical, FRET, CFP-Ran, YFP-importin-beta, homogeneous | cell-free CFP-Ran/YFP-importin-beta FRET ratio | Ran GTPase (GTP-bound) - importin-beta complex | 300,000 tested, 1.1% active | inhibition, % (concentration not given with the values) | AID 2216, 2009;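 active = most replicates above 15%; inconclusive = exactly half above 15%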;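 also: 0% = DMSO wells and 100% = Ran loaded with GDP instead of GTP; wells of about 40 µL received 100 nL stock; the first replicate is given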
LANA-H2B inh: blockers of LANA interaction with H2A/H2B – biochemical, FP readout, HTS, primary screen. inhibition, % (no concentration beside the values). 320,000 tested, 0.6% active. AID 2629, 2010. cell-free LANA-H2A/H2B peptide, fluorescence polarization; in the data active = inhibition mostly above about 10%, no sharp cut-off; inactive = mostly below about 6.7%;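 also: stock transfer was 7.5 nL into about 10 µL; 0% = median of vehicle wells and 100% = median of positive control wells; one replicate is shown; the record names a cut of 25% in any replicate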
B2AR ag: beta2AR agonists driving receptor internalization, primary screen, cell-based, FAP fluorogen, flow cytometry; Beta-2 adrenergic receptor (Homo sapiens), P07550; Am2.2-beta2AR cells; reference of the scale not given here; response, % (test concentration not listed); 340,000 tested, 0.43% active; AID 504454, 2011;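 active = response above a set limit, near 3 SD of response in nonfluorescent compounds, cut at about 42% in these data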;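 also: stock transfer was 100 nL into about 11 µL; a reference agonist was the positive control; negative values mostly stem from fluorescent compounds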
Target sequence (P07550 whole entry, looked up): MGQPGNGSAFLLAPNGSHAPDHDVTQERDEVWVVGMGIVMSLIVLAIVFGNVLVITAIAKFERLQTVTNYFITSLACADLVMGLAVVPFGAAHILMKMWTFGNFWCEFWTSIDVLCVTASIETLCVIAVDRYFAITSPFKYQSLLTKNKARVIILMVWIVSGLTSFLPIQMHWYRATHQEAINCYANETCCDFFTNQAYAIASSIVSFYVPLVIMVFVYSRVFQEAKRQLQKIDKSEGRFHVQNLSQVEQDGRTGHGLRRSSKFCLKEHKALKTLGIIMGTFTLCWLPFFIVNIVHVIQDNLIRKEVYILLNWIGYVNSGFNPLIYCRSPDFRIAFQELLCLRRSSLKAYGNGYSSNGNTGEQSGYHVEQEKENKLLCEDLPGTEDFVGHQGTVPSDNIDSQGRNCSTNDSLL
Calb FLC: C. albicans growth inhibition with fluconazole, primary screen, CaCi-2 strain, Alamar Blue fluorescence. C. albicans CaCi-2 (fluconazole-resistant clinical isolate) + fluconazole, 48 h. 300,000 tested, 0.57% active. growth inhibition, % (concentration not given with the values);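 active = most replicates above 75%; inconclusive = exactly half above 75%; inactive = most below 75%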;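 also: all wells also contain fluconazole at 8 µg/ml as a sub-toxic cotreatment; 0% = median of DMSO wells and 100% = median of geldanamycin control wells; wells of about 8 µL received 7.5 nL stock; the first replicate is given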
T cruzi repl: inhibitors of intracellular T. cruzi growth, primary screen, luminescence, NIH3T3 host cells; T. cruzi beta-gal in NIH3T3, 90 h; inhibition, % (concentration not given with the values); 300,000 tested, 1.4% active;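 active = mean inhibition across valid replicates above about 55%, limit read from the data; inconclusive = mean below that limit but half or more replicates reach it; inactive = mean below it, under half of replicates reach it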;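 also: signal also drops with host cell toxicity which is not excluded here; 0% = plate median of DMSO wells and 100% = zero luminescence signal; higher percent means less beta-gal luminescence so fewer parasites; stock transfer was 50 nL into about 50 µL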
An asterisk follows results filed as active; ? = inconclusive; nt = not tested or not shown.

SMILES	Bfl-1 A1 inh	UCH37 inh	Beta apoptosis	RanGTP-Imp inh	LANA-H2B inh	B2AR ag	Calb FLC	T cruzi repl
CCOc1ccc(-c2nc3n(c(=O)c2C#N)CCCS3)cc1	0.0	-13	0	1.4	5.4	-15	-10	-3
COCc1nn2c(N)c(-c3ccccc3)cnc2c1-c1ccccc1	0.6	-158	-3	-0.9	0.6	-1	9	34
CC(C)NC(NC(=O)/C=C/c1ccccc1)C(Cl)(Cl)Cl (configuration not stated)	-0.2	0.1	3	-4.0	1.2	-13	14	3
COCCN(C(=O)CSc1nnc(Nc2ccccc2F)s1)c1c(N)n(Cc2ccccc2)c(=O)[nH]c1=O	0.4	3.7	-1	-0.3	2.9	-2	-12	-14
Cc1onc(-c2ccccc2)c1C(=O)N/N=C/c1c[nH]c2ccccc12	-0.5	nt	-3	-0.7	5.4	-5	-5	-26
CCc1ccc(C(=O)Nc2nnn(CC)n2)cc1	-5.8	1.7	1	0.6	-4.2	0	0	-27
CCCCCOP(=O)(c1ccccc1)c1ccccc1	0.3	2.2	0	0.6	-2.0	2	60	5
CCOC(=O)N1CCN(c2ccc(C(C)=O)cc2F)CC1	1.5	1.9	2	0.0	0.4	-6	-6	-12
CCOC(=O)c1csc(NC(=O)CSc2nnnn2-c2cccc(OC)c2)n1	2.9	1.3	-1	?	0.5	-8	11	-11
O=C(NS(=O)(=O)Oc1ccccc1F)OC[C@@H]1CCCN2CCCCC12 (some centres not stated)	-1.3	5.1	-5	5.1	-0.9	2	-2	1
O=C(COc1ccccc1)N1CCc2ccccc21	-6.3	4.8	2	4.9	0.3	-4	4	-36
O=C(CN1C(=O)c2ccccc2S1(=O)=O)c1ccc(OC(F)F)cc1	-0.8	0.1	-3	6.3	-1.0	4	6	-12
Cc1cc(NC(=O)CSc2nnc3ccccn23)no1	0.2	-0.6	-6	6.4	2.3	-8	18	-10
COc1ccc(N2CCN(C(=O)c3c(Cl)cnn3C)CC2)cc1	-0.1	-0.2	-14	-1.1	5.3	0	0	-4
COc1cc(C(c2sc3nc(C)nn3c2O)N2CCOCC2)cc(OC)c1OC (configuration not stated)	-0.1	2.5	-3	-0.5	-11	-1	-2	-11
COc1ccc(OCCn2cnc(Cl)c2Cl)cc1	nt	4.4	nt	2.5	nt	0	2	-12
O=C(N/N=C\c1cn[nH]c1-c1ccccc1)c1ccc([N+](=O)[O-])cc1	0.0	nt	2	3.0	-2.7	14	2	-10
CN(Cc1ccccc1)C(=O)C1CCN(S(=O)(=O)c2ccc(-n3cnnn3)cc2)CC1	0.0	2.9	3	0.9	-0.4	-4	-5	2
Cc1cc(C(F)(F)F)c(C#N)c(Sc2ccccc2)n1	0.8	-1.6	-4	-6.7	-2.2	-1	?	-3
CCCCN(C)C(=O)c1nc2ccccn2c1CN(C)Cc1csc(C)n1	0.0	3.9	-1	5.6	3.5	3	49	-6
CCCCNC(=O)c1cn(C)c2ccc(S(=O)(=O)N3CCCC3)cc2c1=O	-1.5	3.4	-3	0.9	-1.8	0	85*	-21
O=C(O)/C=C/C(=O)NNc1ncnc2ccccc12	0.9	12	-3	4.6	-1.9	-7	4	-9
CN1CCN(C(=O)c2ccc(F)c(F)c2)CC1	-0.1	1.2	2	5.7	5.8	-29	4	-24
CC(=O)Nc1cccc(NC(=O)c2cc(-c3cccnc3)nc3ccc(Br)cc23)c1	-0.5	4.0	35	3.5	-2.5	4	16	-6
COc1ccc(/C=N/NC2=NCCCCC2)c(OC)c1	0.2	nt	1	-3.5	-0.4	4	-14	-30
CC(c1ccco1)N(C(=O)c1ccc(F)cc1)c1ccccn1 (configuration not stated)	0.2	-1.4	0	2.0	8.0	0	-4	-6
COc1ccccc1/C(C)=N/NC(=S)NCc1ccccc1	0.0	nt	4	-3.9	-1.6	10	-18	10
CC1CCN(CCCCOc2ccccc2-c2ccccc2)CC1	0.8	3.1	6	2.3	3.4	15	13	15
COc1ccc(CCn2c(=O)c3cccnc3n(Cc3cccc([N+](=O)[O-])c3)c2=O)cc1OC	-0.3	2.4	-5	nt	-3.3	3	nt	22
C=CCn1c(Cc2cccs2)nnc1SCC(=O)Nc1cccc(OC)c1	0.4	3.7	0	-0.6	0.2	1	26	-19
CS(=O)(=O)N1CCN(C(=O)NC2CCCCC2)CC1	1.5	4.2	nt	0.9	3.6	6	-6	-4
CCN1CCN(C(=O)N(c2ccccc2)c2ccccc2)CC1	-0.8	1.5	-3	-0.1	-1.1	-5	-8	8
COc1ccc(CCNC(=O)c2cc3c(=O)n(C)c4ccccc4c3n2C)cc1OC	-0.4	5.3	4	-0.2	-0.9	13	-3	18
Cn1cnc2c(NCc3ccco3)ncnc21	0.8	0.4	-19	5.3	0.1	4	6	-1
COc1ccccc1N1CCN(/N=C\c2ccccc2)CC1	-0.5	nt	4	-0.4	1.5	4	0	-6
COc1cc2c(cc1OC)C(C)N(CCN1C(=O)c3ccccc3C1=O)CC2 (configuration not stated)	-0.1	-3.5	-4	-3.6	0.7	2	4	6

Next section (2 carried over from the part before).
SMILES	Bfl-1 A1 inh	UCH37 inh	Beta apoptosis	RanGTP-Imp inh	LANA-H2B inh	B2AR ag	Calb FLC	T cruzi repl
COc1ccccc1N1CCN(/N=C\c2ccccc2)CC1	-0.5	nt	4	-0.4	1.5	4	0	-6
COc1cc2c(cc1OC)C(C)N(CCN1C(=O)c3ccccc3C1=O)CC2 (configuration not stated)	-0.1	-3.5	-4	-3.6	0.7	2	4	6
Cc1ccccc1S(=O)(=O)c1c(C)cc(C)n(C)c1=O	-1.2	-1.1	-1	-6.6	1.4	8	-1	-7
COc1ccc(NC(=O)CN(C)C(=O)C(C)N2C(=O)c3ccccc3C2=O)cc1 (configuration not stated)	0.8	-2.1	0	1.5	nt	-1	0	3
CCCc1nnc(SCC(=O)Nc2cccc(C(F)(F)F)c2)o1	-0.9	5.3	-2	0.4	0.5	-7	0	-3
Cc1c([N+](=O)[O-])c([N+](=O)[O-])nn1CC(=O)N1CCOCC1	-0.1	2.6	-10	-2.8	0.9	4	-1	25
COc1ccc(Oc2ncccc2[N+](=O)[O-])cc1	0.4	2.6	0	-1.0	3.3	-2	-2	-4
CC1=NN(c2ccccc2)C(=O)/C1=C/N(C)C	-0.7	5.8	-3	0.6	-6.9	-6	-16	-1
COC(=O)c1ccccc1NC(=O)c1ccco1	-0.1	1.9	nt	nt	-3.9	1	nt	nt
O=C(NCCN1CCOCC1)c1ccc2c(c1)N(Cc1ccccc1F)C(=O)c1ccccc1S2(=O)=O	nt	4.5	nt	2.6	nt	-1	-1	3
O=C(Nc1ccon1)c1ccc2c(c1)OCO2	-4.4	0.3	0	-1.4	-1.9	-5	-5	-2
CCc1nnc(NC(=O)CSc2nc(C)c3c(c2C#N)CCCC3)s1	0.5	-33	2	3.9	1.8	-22	53	39
CCC(C)NC(=O)c1ccc(NC(=O)C2=C(C)OCCS2)cc1 (configuration not stated)	-0.2	-1.6	1	1.8	-4.3	-3	-6	-18
COCC(C)n1c(SCC(=O)N2CC(=O)Nc3ccccc32)nc2ccccc2c1=O (configuration not stated)	1.1	2.9	-12	nt	0.7	12	nt	nt

Laid out differently: results already given.
structure | Bfl-1 A1 inh | UCH37 inh | Beta apoptosis | RanGTP-Imp inh | LANA-H2B inh | B2AR ag | Calb FLC | T cruzi repl
COc1ccc(Oc2ncccc2[N+](=O)[O-])cc1 | 0.4 | 2.6 | 0 | -1.0 | 3.3 | -2 | -2 | -4
CCCc1nnc(SCC(=O)Nc2cccc(C(F)(F)F)c2)o1 | -0.9 | 5.3 | -2 | 0.4 | 0.5 | -7 | 0 | -3
CC1=NN(c2ccccc2)C(=O)/C1=C/N(C)C | -0.7 | 5.8 | -3 | 0.6 | -6.9 | -6 | -16 | -1
Cc1ccccc1S(=O)(=O)c1c(C)cc(C)n(C)c1=O | -1.2 | -1.1 | -1 | -6.6 | 1.4 | 8 | -1 | -7
O=C(Nc1ccon1)c1ccc2c(c1)OCO2 | -4.4 | 0.3 | 0 | -1.4 | -1.9 | -5 | -5 | -2
O=C(NCCN1CCOCC1)c1ccc2c(c1)N(Cc1ccccc1F)C(=O)c1ccccc1S2(=O)=O | nt | 4.5 | nt | 2.6 | nt | -1 | -1 | 3

Additional records follow:
SMILES	Bfl-1 A1 inh	UCH37 inh	Beta apoptosis	RanGTP-Imp inh	LANA-H2B inh	B2AR ag	Calb FLC	T cruzi repl
O=C(O)c1ccccc1SCC(=O)N1c2ccccc2Sc2ccccc21	1.2	0.7	-6	?	-2.9	7	22	0
COC(=O)CC(NC(=O)c1ccco1)c1cccc2ccccc12 (configuration not stated)	-0.3	1.6	2	0.8	3.5	2	4	0
O=C(Nc1ccc(F)cc1)c1ccccc1F	-5.2	1.8	3	4.6	-4.4	12	-2	-19
Cn1c(SCC(=O)NC2CC2)nnc1-c1cccs1	0.9	-1.7	3	-1.8	9.0	-4	-14	-8
CC(=O)Nc1ccc(C)cc1NC(C)=O	1.8	2.2	4	-3.5	1.7	8	0	-9
CN1C(=O)N(C)c2ccc(C=O)c3cccc1c23	0.8	-52	-4	-6.3	-0.2	0	-6	6
Cc1ccc2oc(=O)c(/C=C(\O)c3sc(C)nc3C)nc2c1	0.4	8.2	-14	1.0	nt	-1	11	-10
COc1ccc(NC(=O)CN(C)C(=O)c2cnc(Cl)c(Cl)c2)cc1	0.0	-1.1	-3	4.4	5.7	4	-6	-13
O=S(=O)(c1ccccc1)N1CCN=C1SCc1cccnc1	0.9	1.8	-13	-2.7	5.0	-1	31	1
CCC(=O)Nc1cccc(C2=NOC3(C2)C[C@H](C(N)=O)N(C(=O)CC#N)C3)c1 (some centres not stated)	0.4	-0.1	-4	?	-18	-3	-1	16
Cc1ccc(S(=O)(=O)N2CCCCC2)cc1NC(=O)c1ccccc1Cl	2.3	nt	6	nt	-2.1	-1	nt	nt
O=S(=O)(c1ccccc1)N1CCN(S(=O)(=O)c2ccc(F)cc2)CC1	-0.5	0.3	nt	-0.5	-4.9	-4	9	-6
N#CC1=C(N)Oc2nc[nH]c(=O)c2C1c1cccs1 (configuration not stated)	-0.2	2.1	-5	-2.3	2.1	-3	-5	-12
O=C1C(=O)N(Cc2cccnc2)C(c2ccccn2)/C1=C(/O)c1ccc(Br)cc1 (configuration not stated)	1.5	13	-5	-1.8	-1.3	0	-2	-8
CC1=C(C(=O)OCc2ccccc2)C(/C=C/c2ccccc2)N2C(=O)CCSC2=N1 (configuration not stated)	-0.3	3.3	8	1.9	-0.8	-1	-1	9
C=C1CCN([C@@H](CC(C)C)C(=O)Nc2nc3ccc(Cl)cc3s2)S(=O)(=O)c2ccccc21	-0.5	nt	1	6.7	1.5	6	19	10
O=C(CCl)NC1CCCc2ccccc21 (configuration not stated)	-0.1	4.5	6	-1.8	-1.1	0	2	-13
CCOCCCNc1nc2c(c(=O)[nH]c(=O)n2C)n1CCCc1ccccc1	-0.8	3.0	6	-0.8	-1.5	2	23	-10
